# D2 potentiator: positive allosteric modulators of human D2 dopamine receptor; AID 624464; potentiation, % (concentration not given with the values); DiscoveRx D2 beta-arrestin cells, luminescence, 90 min; 100% = 57 uM dopamine signal; 360,000 tested, 0.23% active; active = potentiation of 50% or more; inconclusive = 30% to 50%; inactive = 30% or less;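 further: compound concentration not given in the record; tested on top of an EC20 dose of dopamine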
# Target sequence (P14416 whole entry, looked up): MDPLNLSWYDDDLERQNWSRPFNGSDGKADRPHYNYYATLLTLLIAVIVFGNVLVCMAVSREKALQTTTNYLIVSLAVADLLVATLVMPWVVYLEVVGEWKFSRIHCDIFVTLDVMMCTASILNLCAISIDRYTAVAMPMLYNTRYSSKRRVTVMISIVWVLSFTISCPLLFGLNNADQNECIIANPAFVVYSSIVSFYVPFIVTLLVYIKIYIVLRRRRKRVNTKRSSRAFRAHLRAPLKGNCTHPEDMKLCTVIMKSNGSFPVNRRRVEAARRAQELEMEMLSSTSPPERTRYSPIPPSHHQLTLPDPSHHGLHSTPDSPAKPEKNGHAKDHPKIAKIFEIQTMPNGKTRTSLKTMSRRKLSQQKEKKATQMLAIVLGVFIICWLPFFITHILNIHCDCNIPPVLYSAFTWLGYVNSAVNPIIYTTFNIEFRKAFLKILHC
#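 D2 cells co-treated with compound plus 50 nM dopamine (EC20) for 90 min at 37 deg C to detect potentiation. Beta-arrestin recruitment was read as enzyme-fragment luminescence after 1 h at ambient temperature. Full response was set by 57 uM dopamine.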
# gsp antagonist: gsp mutant antagonism. gsp-mutant cells, cAMP HTRF, 30 min; control for the full effect not named in the record. Potency, µM (titrated, usually from 76.9 µM), without a hit: at the top dose activity change, negative = inhibition, usual class: inhibitors. 340,000 tested, 0.4% active. AID 624288; active = falling curve of any shape with a large fitted effect; inconclusive = falling curve, mostly with a smaller effect; inactive = flat or rising curve; cell line not stated here;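 further: intracellular cAMP measured with PDE inhibitor Ro 20-1724 present during compound exposure; potency means the concentration at half of the fitted maximal effect; on the % scale 0 is the no-effect control and ±100 the full control effect; nearly all actives have a fitted effect of over 65% in size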
#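 HTRF cAMP read-out (cAMP-d2 plus anti-cAMP antibody-K in lysis buffer, 30 min RT). Before lysis, cells are exposed to compounds with […] for 30 min at 37C in DPBS containing Ca/Mg, BSA and Tween 20.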
# gsp ag: activates gsp, the McCune-Albright syndrome mutation; 340,000 tested, 0.13% active; Potency, µM (series often up to 76.9 µM), for inactives: at the highest dose activation (cAMP increase), most hits filed as activators; gsp mutant cells, cAMP HTRF, 30 min; control for the full effect not named in the record; AID 624287; active = well fitted activation curve with a large enough effect; inconclusive = small, poorly fitted or top-dose-only effect, or another doubt; inactive = no such curve, though single readings can be large or run the other way; cell line not stated here;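 further: phosphodiesterase inhibitor Ro 20-1724 added with compounds to block cAMP breakdown; potency means the concentration at half of the fitted maximal effect; nearly all actives have a fitted effect of over 60% in size; about a fifth of the inactives were tested at one dose only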
#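 Cells stably selected in G418 were plated at 2000/well, grown 16-24 hr, then given compounds in DMSO with the PDE inhibitor […] (300 uM solution added) for 30 min at 37C; cAMP was read by HTRF.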
# Six1-Eya2 inh: blocks human Six1 binding to Eya2 | Q15475+O00167 | AlphaScreen GST-Six1/His-Eya2 binding, biochemical; stronger effect = lower value; control for the full effect not named in the record | 360,000 tested, 0.56% active | activity change, % (test concentration not listed); in the data active = activity change below about -65%; inconclusive = about -30% to -65%; inactive = above about -30%; further: on the % scale 0 is the no-effect control and ±100 the full control effect; compound concentration not given in the record
#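 GST-Six1 + His-Eya2 (5X stock: 250/500 nM); Tris pH 8.0, 300 mM NaCl, 0.05% BSA, 0.02% Tween 20; GSH donor/Ni acceptor beads; 1 h 37 °C dark; AlphaScreen readout.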
# D2 ag: human D2 receptor agonism in beta-arrestin assay; 360,000 tested, 0.084% active; activation, % (concentration not given with the values); P14416; DiscoveRx PathHunter D2 beta-arrestin, luminescence, 90 min; 100% = 57 uM dopamine signal; in the data active = activation above about 40%; inconclusive = about 15% to 40%; inactive = below about 15%; further: compound concentration not given in the record; the text of the record calls up to 30% inactive
#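 Agonist mode: compounds alone added to overnight-plated D2 PathHunter cells for 90 min at 37 C, with 57 uM final dopamine (EC100) defining full response. Beta-arrestin recruitment detected by chemiluminescent reagent, read after 1 h at ambient temperature.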
# CtBP-E1A blk: CtBP/E1A binding inhibition; AlphaScreen GST-E1A/His-CtBP binding, 1536-well; stronger effect = lower value; control for the full effect not named in the record; activity change, % (concentration not given with the values); 340,000 tested, 0.49% active; AID 651724; in the data active means activity change below about -65%; inconclusive means about -30% to -65%; inactive means above about -30%; further: on the % scale 0 is the no-effect control and ±100 the full control effect
#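 In 5 uL wells, 23 nL compound meets equimolar GST-E1A and His-CtBP (5X stock 125 nM each) for 2 h, 37 °C. Beads (5X, 50 ug/mL) then 1 h, 37 °C, dark.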
# * marks the source's active call; other numbers are inactive results; ? = inconclusive; . = no result given; [ ] = remark or other dose. An unsorted share of the library. About 1.4% of those tested had a hit in this group.
# Values run as follows: D2 potentiator	gsp antagonist	gsp ag	Six1-Eya2 inh	D2 ag	CtBP-E1A blk
> COC(=O)c1ccc2c(=O)n(CCCCCC(=O)NCCNC(C)=O)c(=O)[nH]c2c1
  -1	7%	-11%[15.4 µM]	-10	-1.2	-1
> O=C(CCN1CCN(CCO)CC1)Nc1ccc(Br)cc1
  -14	9%	26%	-2	-3.4	-9
> c1cc(-c2ccc3nncn3c2)ccc1CN1CCOCC1
  -12	.	.	7	-7.2	-19
> CN1CCN(CCCNC(=O)c2ccc3c(c2)N(Cc2ccc(F)cc2)CCS3)CC1
  -14	14%	50%	-10	-6.1	-15
> COc1cc(OC)c(OC)cc1CN1CCc2ccccc2C1
  -26	7%	-3%	-4	3.9	2
> O=C(CN(CC1CCCO1)C(=O)CCC(=O)Nc1nccs1)NCc1ccccc1 (stereo not drawn)
  -9	5%	11%	7	3.1	-1
> C/C(=N\N=C\c1ccccc1)c1nnn(-c2nonc2N)c1C
  1	10%	?	7	-0.1	0
> CCOC(=O)C1C(c2ccccc2Cl)NC(=O)N(C)C1(O)C(F)(F)F (stereo not drawn)
  -16	6%	27%	-2	-0.4	0
> N/C(=N\OC(=O)c1ccccc1Cl)c1ccccn1
  17	2%	0%	5	5.7	6
> Cc1noc(C)c1CSCC(=O)N(C)CC(=O)Nc1ccc(F)cc1
  4	6%	-9%	9	-2.3	0
> Cc1ccc(CS(=O)(=O)CCC(=O)NCCCN2CCCC2=O)cc1
  2	1%	-39%[inhibitor]	11	2.6	8
> O=C(O)c1ccccc1NS(=O)(=O)c1ccc(N/N=C/c2cccc(O)c2O)c([N+](=O)[O-])c1
  -7	-5%	-23%	?	-3.5	14
> O=S(=O)(NC1CCN(Cc2ccccc2)CC1)c1ccc(F)c(F)c1
  -15	.	-46%[inhibitor]	7	-0.6	5
> Cc1sc(N(C(=O)CCc2ccccc2)c2ccc(C(=O)O)cc2)nc1-c1ccccc1
  -11	-35%	-7%	-2	-4.9	.
> CN1CCN(C(=O)c2cc3nc(-c4ccccc4)cc(-c4ccccc4)n3n2)CC1
  -32	-6%	5%	-5	-3.3	-1
> CCc1ccc(CN2CCCC(C(=O)N3CCCCC3)C2)cc1 (stereo not drawn)
  -21	5%	-21%	2	2.7	-3
> Fc1ccc(CN2CCCCCC2)c(F)c1
  -22	5%	?	3	-1.2	-2
> O=c1cc(CN2CCN(c3ccccc3)CC2)c2cc(O)c(-c3ccccc3)cc2o1
  -2	4%	-24%	-14	3.8	-1
> CC(=O)Nc1cc(-c2cccnc2)cn2c(-c3cccc(C(F)(F)F)c3)cnc12
  -9	.	.	?	-3.3	?
> Cc1ccc(N(CC(=O)N2CCc3ccccc32)C2=NC(=O)CS2)cc1
  -20	4%	-33%[inhibitor]	-4	-5.1	1
> CC1CCCN(C2=C(NS(=O)(=O)c3ccc(Br)cc3)C(=O)c3ccccc3C2=O)C1 (stereo not drawn)
  10	?	4%[15.4 µM]	-3	0.4	?
> Cc1ccnc(SCCn2c(N(C)Cc3ccccc3)nc3c2c(=O)n(C)c(=O)n3C)n1
  -3	-16%	16%	3	-3.0	2
> Cc1ccc(Cn2nnc(C(=O)Nc3cccc(C)c3C)c2N)cc1
  7	11%	15%	2	-5.9	2
> CC1CCc2c(ccc3ccccc23)C1=O (stereo not drawn)
  -12	-3%	-1%	14	-7.1	18
> COc1ccc(CNC(=O)C2CCN(c3nccs3)CC2)cc1
  -12	-3%	2%	-2	-1.4	-3
> CSC1=NC(C(Cl)(Cl)Cl)N=C(c2ccc(C)cc2)N1 (stereo not drawn)
  -6	13%	1%[15.4 µM]	-4	1.0	2
> O=C(NNC(=S)Nc1ccccc1C(F)(F)F)c1ccc(Br)o1
  -5	-16%	1%	1	-8.1	.
> Cc1ccc(NC(=O)CSC(C)C(=O)OCc2cc(=O)oc3cc(O)ccc23)cc1 (stereo not drawn)
  -38	.	-54%[inhibitor]	1	4.0	-2
> CN(C)CCCN(C(=O)COc1ccccc1)c1nc2c(Cl)cccc2s1
  -29	-10%	?	-5	-3.0	1
> O=C(Cc1ccc(F)cc1)Nc1nc(-c2ccc(F)cc2)cs1
  6	0%	-10%[15.4 µM]	0	3.2	-1
> Cc1cc(C)n2nc(SCC(=O)Nc3ccc(F)cc3)nc2n1
  -3	-1%	?	-2	1.7	0
> Cc1cccc(N(CC(O)CN(C)C)S(=O)(=O)c2ccccc2)c1 (stereo not drawn)
  -34	6%	2%	0	-1.9	0
> CCOC(=O)CC(C#N)c1c[nH]c2ccccc12 (stereo not drawn)
  5	-5%	29%	0	-1.4	-15
> COc1cc(C(=O)Cc2nc3ccccc3n2C)cc(OC)c1OC
  3	-5%	?	9	-1.6	24
> Cc1ccc(OCCNC(=O)C(=O)NCc2ccco2)cc1
  -4	18%	11%[15.4 µM]	1	-4.4	-7
> O=C(Nc1nncs1)c1cc2c(s1)CCC2
  -1	-10%	28%	-1	-2.5	0
> COc1ccccc1N1CCN(C(=O)/C=C/c2ccccc2)CC1
  4	-2%	-36%[inhibitor]	-1	-2.6	0
> COc1ccc(NC(=O)COc2cccc3c2CCN(Cc2cccnc2)C3=O)c(OC)c1
  -3	?	?	-75*	-0.3	-82*
> CC(C)=CC(=O)N1CCCc2ccccc21
  -4	3%	-2%	5	1.8	-10
> COc1ccc(C2c3c(oc4ccccc4c3=O)C(=O)N2c2ccccn2)cc1OC (stereo not drawn)
  -4	2%	-40%[inhibitor]	7	-1.6	-2
> CC(=O)c1ccc(N2CCN(C(=O)c3c(-c4ccccc4Cl)noc3C)CC2)cc1
  2	-4%	-29%	1	-2.3	-1
> Cc1c(C)[n+](=O)c2c(n1[O-])CCCCC2
  -5	13%	1%	2	-6.9	5
> O=C(NC1CCCCC1)N1CCN(c2ccc(Cl)cc2)CC1
  -22	7%	4%	1	-1.1	-2
> Cc1cc(NC(=O)c2ccc(NC(=O)CC(C)C)cc2)no1
  -9	9%	8%	-2	-3.0	0
> CCCn1nc(C(=O)N2CCN(c3ccccn3)CC2)c2ccccc2c1=O
  -3	2%	-36%[inhibitor]	-3	-0.4	-3
> CCCCCCOC(=O)c1ccccc1NC(=O)/C=C/C(=O)O
  -2	-2%	-7%	7	-2.2	14
> Cn1c(SCC(=O)Nc2ccc(Cl)cc2F)nnc1-c1ccco1
  -5	-4%	21%	9	3.9	0
> CCOc1cc(/C=N/NC(=O)COc2ccccc2C)ccc1OC(=O)c1cccs1
  -2	5%	11%	-4	2.0	-15
> Brc1ccc(C2Nc3cccc4cccc(c34)N2)s1
  ?	6%	?	2	4.1	13
> O=C(c1cccc(C(F)(F)F)c1)C1CCCN(C(=O)CCc2cnccn2)C1 (stereo not drawn)
  -10	3%	10%[15.4 µM]	5	1.0	6
> COc1cccc(C(=O)Nc2c3c(nn2-c2ccc(Cl)cc2)CS(=O)(=O)C3)c1OC
  4	?	10%	0	-2.1	-2
> Cc1nc(N)c(Cc2ccccc2F)c(N)n1
  -2	10%	-60%[inhibitor]	3	-2.9	-6
> Cc1ccc(-c2nc3ccc(Br)cn3c2Cc2cccc(Cl)c2)cc1
  -5	.	.	-6	-5.1	7
> COc1ccc(/C=C/C(=O)c2ccc3ccccc3c2O)cc1CN1CCOCC1
  -6	0%	-3%[15.4 µM]	-15	-2.4	-6
> CC(=O)c1cccc(NC(=O)C2CCN(S(C)(=O)=O)CC2)c1
  -15	2%	-40%	0	-2.8	6
> Cc1noc(C)c1C(=O)N1CCN(C(=O)c2sc3cc(Cl)ccc3c2Cl)CC1
  -6	-22%	-3%	1	1.8	5
> Nc1nc(-c2cccnc2)nn1C(=O)c1ccc(Cl)cc1
  -4	3%	-61%[inhibitor]	-2	-5.4	.
> O=C(c1c(Cl)cccc1Cl)N1CCN(c2cccc3[nH]ccc23)CC1
  11	0%	4%	-8	?	-1
> Cc1ccccc1/C(N)=N/OC(=O)/C=C/c1ccccc1
  87*	2%	6%	24	?	24
> O=C(Cc1cccs1)N/N=C/c1ccccc1
  -7	3%	36%	4	-6.4	7

# (list continues)
# Values run as follows: D2 potentiator	gsp antagonist	gsp ag	Six1-Eya2 inh	D2 ag	CtBP-E1A blk
> S=C(NCC1CCCO1)n1nnc2ccccc21 (stereo not drawn)
  5	-2%	-1%	3	3.1	3
> CCc1nc(NCC2CC2)c2nnn(Cc3ccccc3)c2n1
  -8	.	-60%[inhibitor]	13	-0.7	-15
> CN(/N=C/c1ccc(Cl)cc1)c1ncc(Cl)cc1C(F)(F)F
  -6	-16%	-5%[15.4 µM]	32	0.8	19
> OCc1ccccc1CN1CCCCCC1
  -3	5%	7%[15.4 µM]	10	-6.2	4
> N#CC1=C(N)C(C#N)(C#N)[C@H](c2ccsc2)[C@H]2COCC=C12
  -25	-11%	?	-4	-3.1	-2
> Cn1c(-c2ccc(F)cc2)cnc1NCc1ccccc1F
  -91	4%	-26%	-4	-10	.
> CCC[C@H]1CN(c2ccccc2)C(=O)[C@@H]1CC(=O)Nc1ccc(OC)cc1
  -1	.	-83%[inhibitor]	-1	-8.6	-3
> CCOc1ccccc1OCCCC(=O)Nc1sccc1C(N)=O
  -5	-4%	-32%[inhibitor]	2	1.1	15
> Cc1ccc(CC2CC(=O)N(CCc3ccc4c(c3)OCO4)C2=O)cc1 (stereo not drawn)
  -7	-15%	-9%	-5	-3.6	4
> CN(C)C(=O)CCc1ccc2c3c([nH]c2c1)[C@]1(C)[C@@H](C(=O)N2CCCCC2)C[C@H](CC(=O)NCCC2=CCCCC2)C(=O)N1CC3
  .	-22%	.	-5	1.5	-1
> CCC(CO)Oc1cc(NCc2ccccc2O)c2ncn(C(C)C)c2c1 (stereo not drawn)
  ?	?	.	-24	14	-12
> CCNc1ccc(C(=O)OCC(=O)NC(=O)NCC(C)C)cc1[N+](=O)[O-]
  0	1%	2%[15.4 µM]	0	-3.4	3
> CCCCNS(=O)(=O)c1ccc2nc(SCC(=O)Nc3cccc(F)c3)[nH]c2c1
  4	3%	1%	2	2.7	1
> COC(=O)[C@@H]1CCCN1Cc1nc(Cc2ccccc2F)no1
  3	5%	-69%[inhibitor]	4	-3.6	8
> COC(=O)c1c(C(=O)OC)c(-c2ccc(F)cc2)n2c1CSC2
  -5	-12%	0%	-14	-1.7	.
> CC1Cc2ccccc2N1C(=S)NC1CCCC1 (stereo not drawn)
  10	2%	-27%	5	-0.7	5
> O=Cc1cn(CC(=O)Nc2ccccc2)c2ccccc12
  -4	-3%	6%	8	0.2	.
> O=C(CN1C(=O)NC2(CCCC2)C1=O)N1CCCSC1=Nc1ccccc1
  -15	13%	5%	2	-3.4	0

# Sorted by SMILES length (rising): some entries from above.
# Values run as follows: D2 potentiator	gsp antagonist	gsp ag	Six1-Eya2 inh	D2 ag	CtBP-E1A blk
> Cn1c(-c2ccc(F)cc2)cnc1NCc1ccccc1F
  -91	4%	-26%	-4	-10	.
> CCOc1ccccc1OCCCC(=O)Nc1sccc1C(N)=O
  -5	-4%	-32%[inhibitor]	2	1.1	15
> O=C(CN1C(=O)NC2(CCCC2)C1=O)N1CCCSC1=Nc1ccccc1
  -15	13%	5%	2	-3.4	0
